# Screens (PubChem BioAssay)
# Choline anaer gr: growth inhibitors of anaerobic choline-fed gram-negatives, minimal medium, absorbance; Gram-negative bacterium anaerobic choline minimal medium; hits give low values; many inactives read as strong as hits in the columns shown; calls only; 0.2% of 55,000 active; AID 1963822, 2024;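 active means growth z-score on choline under -2 at 7 or 20 h with little or no fall on glycerol, limits in tiers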;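 further: stock transfer was 300 nL into about 50 µL; the organism is E. coli; final concentration not given here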
# Choline anaer gr early: further read-out of Choline anaer gr, marked with its call; z-score; measured here: choline growth z-score, timepoint 1;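 score of optical density at 7 h as mean of two plates; lower means less growth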
# The depositor's hits bear a star; i = inactive; & = joins results of further samples. The list is partial; count on the stated rates, not on these rows.
cpd	Molecule	Choline anaer gr	Choline anaer gr early
1	Cn1c(C(=O)Nc2cccc(Cl)c2)cc2c(=O)oc3ccccc3c21	i	-0.09
2	Cc1ccc(C)c(Cn2cccc(S(=O)(=O)N3CCCC3)c2=O)c1	i	0.96
3	O=C(CCc1nnc(C(=O)Nc2cccc(Cl)c2)s1)NCc1cccc(F)c1	i	1.79
4	Cc1cc(C)cc(N2C(=O)Nc3ccccc3S2(=O)=O)c1	i	0
5	Cc1ccc(-c2nccc(Oc3ccc(C(=O)NCc4ccc5c(c4)OCO5)cc3)n2)cc1	i	1.6
6	CCc1nnc(-c2ccc(S(=O)(=O)N3CCOCC3)o2)o1	i	0.36
7	CC(C)n1c(N2CCCN(C(=O)CC3CCCC3)CC2)cc(=O)n(C(C)C)c1=O	i	-0.65
8	O=C(CNC(=O)c1ccccc1Cl)OCc1cc(=O)n2ccsc2n1	i	0.87
9	Cc1cc(C)n(-c2cc(NCc3cccc(Br)c3)ncn2)n1	i	1.73
10	CCn1nc(C)c2c1c(=O)n(Cc1ccc(F)cc1)c(=O)n2CC(=O)NC1CCCC1	i	0.65
11	Cc1nn(C(C)C(=O)N2CCc3ccccc3C2)c(=O)c2c1sc1ccccc12 (stereo not given)	i	0.7
12	COc1ccc(C2=Nc3ccccc3N=C(SCC(=O)NCc3cccc(OC)c3OC)C2)cc1	i	1.46
13	CCOc1ccc(N(Cc2nc3nc(C)cc(=O)n3[nH]2)C(=O)C(C)C)cc1	i	-0.56
14	C=CCC1C=C(C)CC(C)CC(OC)C2O[C@@](O)(C(=O)C(=O)N3CCCCC3C(=O)OC(C(C)=CC3CCC(O)C(OC)C3)C(C)C(O)CC1=O)C(C)CC2OC (stereo not given in full)	i	0.5
15	CCCCn1c(SCc2nc(-c3ccc(F)cc3)no2)nc2cc3c(cc2c1=O)OCO3	i	0.4
16	O=C(CCC(=O)N1CCc2cc(S(=O)(=O)N3CCOCC3)ccc21)N1CCCC1	i	-0.12
17	Cc1cc(C)n2nc(CN(Cc3ccccc3)C(=O)C(C)C)nc2n1	i	0.81
18	COc1ccc(S(=O)(=O)Nc2ccc(-c3nnc(-c4ccccc4)o3)cc2)cc1	i	0.83
19	Cc1ccc2c(c1)sc1nc(C)c(S(=O)(=O)Nc3ccc(Cl)cc3)c(=O)n12	i	0.72
20	CC1CN(C(=O)C2CC2)c2cc(S(=O)(=O)N3CCn4c3nc3ccccc34)ccc2S1 (stereo not given)	i	0.34
21	O=C(NCCN1CCCCC1)C1CCN(c2ccc(-c3ccc(F)cc3)nn2)CC1	i	-1.02
22	NS(=O)(=O)Cc1noc2ccccc12	i	-0.34&0.47&0.46
23	CCn1c(=O)c2c(C(=O)NCCN3CCCC3)cc(=O)n(CC)c2n(C)c1=O	i	0.76
24	CCSc1nn(CC(=O)Nc2ccc3c(c2)OCO3)c(N)c1S(=O)(=O)c1ccc(C)cc1	i	0.84
25	COc1ccc(NC(=O)c2nnc(CSCC(=O)N3CCN(c4ccccn4)CC3)s2)cc1	i	0.73
26	COc1cc(C2CC(=O)Nc3c2c(C)nn3-c2ccc3nnc(C)n3n2)ccc1OCC(C)C (stereo not given)	i	0.51
27	CCC(C)NC(=O)C(C)N1C(=O)C2CCCCN2C(=O)c2ccccc21 (stereo not given)	i	-0.64
28	O=C(CCCc1nc(-c2cccnc2)no1)Nc1cccnc1	i	-1.42
29	COc1cccc(NC(=O)CN2C(=O)COc3ccc(C(=O)N4CCCC4)cc32)c1	i	-0.15
30	CCCCN(CCCNC(=O)Nc1cn(CC(C)C)c(=O)c2ccccc12)Cc1ccccc1	i	-0.72
31	Cc1ccc2c(=O)cc(C(=O)NCC(c3ccc(C(C)(C)C)cc3)N(C)C)oc2c1 (stereo not given)	i	1.21
32	COc1ccc(OCCn2c(C(F)(F)F)nc3cc4c(cc32)OCCO4)cc1	i	-0.85
33	O=C(NCc1ccc(F)cc1)N1CCC(N2CCN(Cc3cccc(F)c3)C(=O)C2=O)CC1	i	0.42
34	CNc1oc(-c2ccc(S(=O)(=O)N3CCC(C)CC3)cc2)nc1C#N	i	0.17
35	O=C(NCCc1nc2cccnc2n1-c1ccccc1)Nc1ccc(F)cc1	i	0.74
36	O=C(CNS(=O)(=O)c1ccc2c(c1)CCN2C(=O)N1CCCC1)N1CCc2ccccc2C1	i	-0.65
37	Cc1ccc(-n2ccc(=O)c(-c3nc(-c4ccc(OC(C)C)cc4)no3)n2)cc1	i	0.04
38	Cc1cc(N2CCN(C)CC2)nc2ccc(NC(=O)Nc3ccc(F)cc3F)cc12	i	-0.48
39	Cc1csc(-c2cc(S(=O)(=O)N3CCC(Cc4ccccc4)CC3)c(C)n2C)n1	i	1.73
40	Nc1c(S(=O)(=O)O)cc(Nc2ccc(Nc3nc(Cl)nc(Nc4ccc(S(=O)(=O)O)cc4)n3)c(S(=O)(=O)O)c2)c2c1C(=O)c1ccccc1C2=O	i	4.58
41	Cc1nc(-c2ccc3c(c2)n(CC(=O)N2c4ccccc4CC2C)c(=O)n3C(C)C)no1 (stereo not given)	i	-0.79
42	Cc1nc(C(N)=O)c2c(n1)n(-c1ccc(C)c(C)c1)c(=O)n2C	i	-0.11
43	CCOC(=O)c1cc(-c2ccc(C)cc2)n(CC(=O)N2CCN(c3ccccn3)CC2)c1C	i	-0.72
44	O=S(=O)(Nc1cccc(N2CCCS2(=O)=O)c1)c1ccc(Br)cc1	i	-0.58
45	c1cc(-c2noc(-c3ccoc3)n2)cc(-c2ccn[nH]2)c1	i	-0.7
46	C=CCn1c(SCC(=O)N2CCOCC2)nnc1-c1cc2ccccc2o1	i	-1.48
47	O=c1c2[nH]c3ccccc3c2ncn1Cc1ccccc1	i	1.22
48	CCOc1ccc(C(=O)Nc2ccc(N3CCCS3(=O)=O)cc2)cc1OCC	i	1.2
49	CC1CCN(C(=O)Cn2nc(Cc3ccncc3)c3ccccc3c2=O)CC1	i	0.17
50	O=C(NC1CCS(=O)(=O)C1)c1ccc(CN2C(=O)CCn3nc(-c4ccc(Cl)cc4)cc32)cc1 (stereo not given)	i	-0.6
51	CC1CCN(C(=O)c2ccc3c(Cl)c4c(nc3c2)CCCC4)CC1	i	-1.78
52	CCOC(=O)c1cc(S(=O)(=O)N2CCCC2C(=O)Nc2ccc3c(c2)OCCO3)cn1C (stereo not given)	i	-0.34
53	CCOC(=O)c1ccccc1NC(=O)Cn1nnc2sc3c(c2c1=O)CCCC3	i	0.99
54	CC1Sc2ccc(S(=O)(=O)N3CCC(C(=O)Nc4cccnc4)CC3)cc2NC1=O (stereo not given)	i	0.4
55	CCCCNC(=O)c1cn(C)nc1S(=O)(=O)N1CCSCC1	i	0.53
56	COC(=O)c1cc(S(=O)(=O)N2CCCC2C(=O)N2CCC(C)CC2)cn1C (stereo not given)	i	-0.34

# Fetched by compound from the list above:
cpd	Molecule	Choline anaer gr	Choline anaer gr early
54	CC1Sc2ccc(S(=O)(=O)N3CCC(C(=O)Nc4cccnc4)CC3)cc2NC1=O (stereo not given)	i	0.4
50	O=C(NC1CCS(=O)(=O)C1)c1ccc(CN2C(=O)CCn3nc(-c4ccc(Cl)cc4)cc32)cc1 (stereo not given)	i	-0.6
55	CCCCNC(=O)c1cn(C)nc1S(=O)(=O)N1CCSCC1	i	0.53
53	CCOC(=O)c1ccccc1NC(=O)Cn1nnc2sc3c(c2c1=O)CCCC3	i	0.99
52	CCOC(=O)c1cc(S(=O)(=O)N2CCCC2C(=O)Nc2ccc3c(c2)OCCO3)cn1C (stereo not given)	i	-0.34

# Next entries follow:
cpd	Molecule	Choline anaer gr	Choline anaer gr early
57	CCN1C(=O)c2c(C(=O)N3CCOCC3)ncn2CC1(C)C(=O)NC1CCCC1 (stereo not given)	i	-0.41
58	COc1ccc(-c2nnc(SCc3cc(=O)n4ccsc4n3)o2)cc1	i	1.29
59	Cc1ccc2[nH]cc(CCNC3CC(=O)N(c4ccc(C)c(C)c4)C3=O)c2c1 (stereo not given)	i	0.98
60	O=C(NCc1cccn1Cc1ccc(Cl)cc1)NCC1CCCO1 (stereo not given)	i	0.22
61	CCOc1ccc2oc(C)c(C(=O)Nc3cc(OC)c(OC)cc3C(=O)OC)c2c1	i	-0.07
62	COc1cccc(NC(=O)c2ccc(CN3C(=O)C4CCCN4C(=O)c4ccccc43)cc2)c1 (stereo not given)	i	-0.16
63	O=C(CC1CCN(C(=O)C2CCCCC2)CC1)N1CCCCCC1	i	-0.1
64	Cc1noc(C)c1C1CCCN1Cc1ccc(F)cc1F (stereo not given)	i	-0.47
65	CCNC(=O)c1[nH]nc2c1CCc1cc(OC)ccc1-2	i	0.02
66	O=S(=O)(c1ccc(F)cc1)N1CCN(Cc2ccc3nccnc3c2)CC1	i	-0.52
67	O=C(O)C1CCCN(c2ncccn2)C1 (stereo not given)	i	0.01
68	Cc1nc2cccnc2n1-c1ccc(CC(=O)NCCC2=CCCCC2)cc1	i	0.18
69	O=C1CCSc2ccc(S(=O)(=O)N3CCC(CN4CCc5ccccc5C4)CC3)cc2N1	i	-1.84
70	CCCCN(C)C(=O)c1cc2cccnc2n(Cc2ccc(F)cc2)c1=O	i	0.14
71	O=C(CN1C(=O)c2ccccc2Sc2ncccc21)N1CCN(C2CCCCC2)CC1	i	0.08
72	Cc1cc(C)c(S(=O)(=O)N2CCN(c3cc(=O)n4nc(-c5ccccc5)sc4n3)CC2)cc1C	i	-0.94
73	O=c1[nH]nc(-c2ccc(Br)cc2)c2c1Nc1nnnn1C2c1ccc(F)cc1 (stereo not given)	i	0.77
74	Cc1ccc(NC(=O)N2CCCC2c2nnc(C(=O)Nc3cccc(F)c3)s2)c(Cl)c1 (stereo not given)	i	1.43
75	Cn1c(=O)c(C(=O)Nc2ccc3c(c2)OCO3)nc2ccccc21	i	0.98
76	COc1ccc(NC(=O)c2nnc(COCC(=O)N3CCN(c4ccccc4)CC3)s2)cc1	i	0.45
77	COc1cc2c(cc1OC)C(C(=O)Nc1ccc(Oc3ccccc3)cc1)C(c1cccnc1)N(C)C2=O (stereo not given)	i	0.48
78	Cc1ccc2c(c1)c1c3n2CCNC3CCC1 (stereo not given)	i	-0.42&-0.28
79	Cn1c(SCC(=O)Nc2ccc3c(c2)OCCO3)nc2cc(-c3ccccc3)sc2c1=O	i	-0.36
80	Cc1nc(C)c(-c2nc(-c3ccc4c(c3)ncn4C3CCCC3)no2)s1	i	0.54
81	CC(N)=NCCCC[C@H](N)C(=O)O	i	-0.7
82	Cc1ccc(C2CC(=O)Nc3c2c(C)nn3-c2nc3ccc(C)cc3s2)cc1 (stereo not given)	i	0.37
83	CN(CC(=O)NC1CCCC1)S(=O)(=O)c1c[nH]c(C(=O)N2CCCC2)c1	i	0.62
84	Cc1cc(=O)n2nc(N3CCCC3C(=O)N3CCC(C)CC3)sc2n1 (stereo not given)	i	-1.59
85	COCCNC(=O)N1CCN(Cc2nc3cccnc3n2-c2ccccc2)CC1	i	-1.76
86	COc1ccc(C(=O)N2CCN(C(=O)c3cc4cc(Br)ccc4[nH]3)CC2)cc1OC	i	-0.32
87	Cc1cc(C)n2nc(CN(c3ccc(Cl)cc3)S(=O)(=O)c3ccccc3)nc2n1	i	-0.22
88	Cc1ccc(S(=O)(=O)Nc2ccc(Nc3cc(N(C)C)nc(C)n3)cc2)cc1	i	1.45

# Some of the entries so far, with two lines to a compound.
# Screens in order: Choline anaer gr	Choline anaer gr early
(85) COCCNC(=O)N1CCN(Cc2nc3cccnc3n2-c2ccccc2)CC1
    i	-1.76
(86) COc1ccc(C(=O)N2CCN(C(=O)c3cc4cc(Br)ccc4[nH]3)CC2)cc1OC
    i	-0.32
(87) Cc1cc(C)n2nc(CN(c3ccc(Cl)cc3)S(=O)(=O)c3ccccc3)nc2n1
    i	-0.22

# The results go on:
cpd	Molecule	Choline anaer gr	Choline anaer gr early
89	COc1cc(-c2ccc(N=Nc3ccc4c(S(=O)(=O)O)cc(S(=O)(=O)O)c(N)c4c3O)c(OC)c2)ccc1N=Nc1ccc2c(S(=O)(=O)O)cc(S(=O)(=O)O)c(N)c2c1O	i	14.2
90	O=C(NC1CCN(C(=O)C2CCCC2)C1)c1cccs1 (stereo not given)	i	-0.96
91	COc1ccc2c(c1)c(=O)c1ccoc1n2C	i	0.45
92	Cc1ccc(-n2cc[nH]c(=O)c2=O)cc1C	i	0.22
93	CCc1nc(OC2CC(C)(C)Oc3ccc(OC)cc32)c2oc3ccccc3c2n1 (stereo not given)	i	-0.15
94	CC(C)CCNC(=O)CCc1nc(-c2nn(-c3ccc(F)cc3)c(=O)n(C)c2=O)no1	i	-1.17
95	CCOC(=O)C1CCN(c2nn3c(NC(C)(C)C)c(-c4ccc(F)cc4)nc3s2)CC1	i	0.27
96	Cc1ccc(CNC(=O)c2ccc(-n3nc(N4CCCC4)ccc3=O)cc2)cc1	i	-0.4
97	O=C(NCc1ccc(S(=O)(=O)N2CCCC2)s1)C1(c2ccccc2)CC1	i	0.01
98	COc1ccc(-c2nc(CSc3nc(-c4cccnc4)cc(=O)[nH]3)c(C)o2)c(OC)c1	i	-0.06
99	Cn1cc(S(=O)(=O)N2CCc3ccccc32)cc1C(=O)N1CCCc2ccccc21	i	0
100	CCn1c(SCc2ccccc2C)nc2c(cnn2CCO)c1=O	i	-0.05
101	CC1(C(=O)NC2CCCC2)Cn2c(c(-n3cccc3)c3ccccc32)C(=O)N1C1CCCC1 (stereo not given)	i	1.18
102	COc1cc(N)c(Cl)cc1C(=O)CCC1CCN(CCNS(C)(=O)=O)CC1	i	0.27
103	CN(C)CCNS(=O)(=O)c1ccc2c(c1)CCN2C(=O)CCC(=O)N1CCOCC1	i	-0.4
104	O=C(Nc1ccc(F)cc1)C1CCCN(c2nc3ccccc3nc2C(F)(F)F)C1 (stereo not given)	i	0.58
105	CCN1CCN(Cc2nc3cc(NC(=O)C4CCCCC4)ccc3n2C(C)C)CC1	i	0.09
106	CNC(=O)c1ccc(-c2nc(CN3CCN(C(=O)Nc4cc(C)cc(C)c4)CC3)c(C)o2)cc1	i	0.15
107	COc1ccc2cc3c(nc2c1)N(S(=O)(=O)c1ccc(Cl)cc1)CC3	i	-0.01
108	O=C(NCc1cccnc1)C1CCN(c2ncnc3c2sc2cccc(F)c23)CC1	i	0.78
